Menin MLL FP FL: displaces fluorescein MLL peptide from human menin; Fluorescence polarization, fluorescein-MLL peptide displacement from menin; FP activity change, % at 61.4 µM; 290,000 tested, under 10 active; AID 1766; inconclusive = falling polarisation curve, or a change in total fluorescence; inactive = total fluorescence flat and polarisation flat or rising; no compound was filed as active; the % refers to the polarisation; negative = inhibition;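 further: % of control where 0% means no effect; inhibitors lower the polarisation; unlabelled MLL peptide was the positive control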
Sfp inh: blocks B. subtilis Sfp PPTase activity. Q9F4F7. 310,000 compounds, 3.5% hits. Biochemical Sfp PPTase activity, qHTS. Potency, µM, inactives show max response, negative = inhibition, actives largely listed as inhibitors; active means well fitted inhibition curve with a large enough effect; inconclusive means small, poorly fitted or top-dose-only effect, or another doubt; inactive means no such curve, though single readings can be large or run the other way;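 further: the enzyme is Sfp with the accession as filed and its product quenches rhodamine fluorescence; potency means the concentration at half of the fitted maximal effect; 0% = enzyme reaction without inhibitor and -100% = no enzyme wells; top concentration of the series not given in the record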
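Fluorescence-quenching assay with 15 nM Sfp, 5 uM rhodamine-CoA and 12.5 uM BHQ-2-labelled ybbR peptide in pH 7.6 Hepes/MgCl2 buffer. Enzyme was pre-incubated with compound for 15 min at room temperature. Rate was taken from the 30-min fluorescence change (525/598 nm).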
gsp antagonist: antagonizes gsp, the McCune-Albright syndrome mutation; gsp-mutant cells, cAMP HTRF, 30 min; control for the full effect not named in the record; 340,000 compounds, 0.4% hits; Potency, µM (series often up to 76.9 µM), without a hit: at the top dose activity change, negative = inhibition, most hits filed as inhibitors; AID 624288; active = falling curve of any shape with a large fitted effect; inconclusive = falling curve, mostly with a smaller effect; inactive = flat or rising curve; cell line not stated here;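 further: intracellular cAMP measured with PDE inhibitor Ro 20-1724 present during compound exposure; potency means the concentration at half of the fitted maximal effect; on the % scale 0 is the no-effect control and ±100 the full control effect; nearly all actives have a fitted effect of over 65% in size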
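HTRF cAMP measurement after 30 min RT detection following 30 min, 37C compound treatment alongside […] (added as 300 uM solution) in G418-selected cells seeded at 2000/well and grown 16–24 h.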
gsp ag: agonists of gsp mutant (McCune-Albright syndrome). gsp mutant cells, cAMP HTRF, 30 min; control for the full effect not named in the record. Potency, µM (doses to about 76.9 µM), inactives show top-dose activation (cAMP increase), usual class: activators. 340,000 compounds, 0.13% hits; active = well fitted activation curve with a large enough effect; inconclusive = small, poorly fitted or top-dose-only effect, or another doubt; inactive = no such curve, though single readings can be large or run the other way; cell line not stated here;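 further: phosphodiesterase inhibitor Ro 20-1724 added with compounds to block cAMP breakdown; potency means the concentration at half of the fitted maximal effect; nearly all actives have a fitted effect of over 60% in size; about a fifth of the inactives were tested at one dose only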
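Cells in DMEM/10% FBS with G418 were pretreated with compounds in DMSO plus […] (300 uM stock) for 30 min at 37C. cAMP was measured by HTRF (cAMP-d2 plus anti-cAMP antibody-K) after 30 min at room temperature.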
ClpP mod: qHTS Assay for Activators of ClpP | AID 651965, 2013 | 340,000 compounds, 1.9% hits | ATP-dependent Clp protease proteolytic subunit (Bacillus subtilis (strain 168)), P80244 | Potency, µM (titrated, usually from 57.5 µM), inactives show at the top dose activity change, negative = active | purified B. subtilis ClpP, FRET peptide cleavage, 20 min; active = well fitted falling curve with a large enough effect; inconclusive = small, poorly fitted or top-dose-only effect; inactive = no such curve, though single readings can be large or run the other way; further: potency means the concentration at half of the fitted maximal effect; the source files actives as falling curves though it sought activators and does not explain the sign; nearly all actives have a fitted effect of over 65% in size; many hits overshoot -100%
Target sequence (P80244 whole entry, looked up): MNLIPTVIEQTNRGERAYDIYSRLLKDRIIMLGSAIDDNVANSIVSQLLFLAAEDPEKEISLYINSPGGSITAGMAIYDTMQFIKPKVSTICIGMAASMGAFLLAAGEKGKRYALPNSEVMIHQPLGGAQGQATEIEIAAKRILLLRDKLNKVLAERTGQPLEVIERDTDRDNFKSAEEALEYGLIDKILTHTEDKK
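Purified B. subtilis ClpP, 10 microg/mL final in Tris/HCl pH8 with KCl, BSA, glycerol and Tween-20, cleaved an Abz/nitrotyrosine-quenched decapeptide. Fluorescence (ex 320, em 430) was read at 0 and 20 min at room temperature. Delta was normalized to 5.8 microM ADEP and DMSO/no-enzyme controls.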
CtBP-E1A inh: inhibitors of CtBP/E1A interaction; AID 651724; AlphaScreen GST-E1A/His-CtBP binding, 1536-well; stronger effect = lower value; control for the full effect not named in the record; 340,000 compounds, 0.49% hits; activity change, % (test concentration not listed); in the data active means activity change below about -65%; inconclusive means about -30% to -65%; inactive means above about -30%; further: on the % scale 0 is the no-effect control and ±100 the full control effect
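Steps: dispense buffer (Tris pH 8.0, NaCl 300 mM, TCEP 1 mM, BSA, Tween 20); add 5X protein mix (GST-E1A, His-CtBP, 125 nM each); pin 23 nL compound; 2 h at 37 °C, dark; add 5X beads (50 ug/mL); 1 h; read.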
TRPV1 potentiator: human TRPV1 potentiation. 320,000 compounds, 0.02% hits. Q8NER1. TRPV1-expressing cells, Fluo-8 calcium influx, capsaicin EC20 potentiation; host cell line not named in the record; control for the full effect not named in the record. AID 540277. potentiation, % at 8.33 µM; active means potentiation above 80%; inconclusive means 30% to 80%; inactive means below 30%; further: 0% is about no effect
Target sequence (Q8NER1 whole entry, looked up): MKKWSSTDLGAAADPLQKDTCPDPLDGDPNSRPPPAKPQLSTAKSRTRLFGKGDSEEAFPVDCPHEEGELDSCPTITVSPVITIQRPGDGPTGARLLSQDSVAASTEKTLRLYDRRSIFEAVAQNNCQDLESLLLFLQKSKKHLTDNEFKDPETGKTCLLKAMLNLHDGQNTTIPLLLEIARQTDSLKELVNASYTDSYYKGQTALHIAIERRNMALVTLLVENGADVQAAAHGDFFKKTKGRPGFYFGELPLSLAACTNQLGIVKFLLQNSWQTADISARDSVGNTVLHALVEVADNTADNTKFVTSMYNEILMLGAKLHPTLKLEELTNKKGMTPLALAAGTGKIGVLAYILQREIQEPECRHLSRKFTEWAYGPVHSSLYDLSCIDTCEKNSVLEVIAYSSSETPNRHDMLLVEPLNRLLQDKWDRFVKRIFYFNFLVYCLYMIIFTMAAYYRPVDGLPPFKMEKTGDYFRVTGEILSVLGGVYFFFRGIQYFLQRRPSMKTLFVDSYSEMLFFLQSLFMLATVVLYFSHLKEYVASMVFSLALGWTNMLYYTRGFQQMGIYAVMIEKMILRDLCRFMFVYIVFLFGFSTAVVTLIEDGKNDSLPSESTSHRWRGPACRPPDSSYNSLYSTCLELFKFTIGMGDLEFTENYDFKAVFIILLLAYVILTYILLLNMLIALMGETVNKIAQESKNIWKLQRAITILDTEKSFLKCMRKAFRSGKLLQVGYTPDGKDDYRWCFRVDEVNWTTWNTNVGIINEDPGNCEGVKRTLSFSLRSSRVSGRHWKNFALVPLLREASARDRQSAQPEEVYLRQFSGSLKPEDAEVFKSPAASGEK
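Fluo-8 calcium influx in TRPV1-expressing cells, kinetic read (ex 480/em 520 nm). Compound added and read 3 min for agonist activity, followed by capsaicin at EC20 final and 2 min further read for enhancement.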
The depositor's hits bear a star; ? = inconclusive; · = not tested or not shown; & = joins results of further samples; [ ] = dose if it differs, or a comment.

SMILES	Menin MLL FP FL	Sfp inh	gsp antagonist	gsp ag	ClpP mod	CtBP-E1A inh	TRPV1 potentiator
COc1ccc(C(=O)Nc2ccc(C(=O)NCCc3ccccc3)cc2)cc1	-1.1	-4%	1%	-26%	-11%	·	-28
CCN(C(=O)c1cn(C)c(=O)c2cc(OC)c(OC)cc12)c1cc(OC)ccc1OC	0.6	0%	-9%	-18%	-0.5%	-1	?
CC1CN(C(=O)COC(=O)c2ccccc2O)CC(C)O1 (stereo not drawn)	·	16%	10%	10%	·	4	3
COc1ccc(CCNC(=O)CC2Oc3ccc(Cl)cc3NC2=O)cc1OC (stereo not drawn)	-0.5	20%	-1%	-71%[inhibitor]	-1.1%	3	27
CCc1nccn1Cc1cc(C=O)ccc1OC	-0.7	0%	6%	-1%[15.4 µM]	1.1%	7	6
CCN(C(=O)COC(=O)c1cn(-c2ccccc2)nc1-c1ccccc1)C1CCS(=O)(=O)C1 (stereo not drawn)	4.7	7%	-17%	-17%[15.4 µM]	·	-15	-3
O=C(NCc1ccccc1)C1CCCN(S(=O)(=O)c2ccc(F)cc2)C1 (stereo not drawn)	·	13%	7%	3%[15.4 µM]	1.2%	-1	1
Cc1ccc2c(c1)c(C1=NC(=S)NC1=O)c(O)n2C	-0.7	40µM*	0%	-50%[inhibitor]	·	-20	10
CC1CCCCC1NC(=O)Cn1cccc1C(=O)c1ccccc1 (stereo not drawn)	·	13%	20%	?	1.6%	-2	5
COc1cc(C(=O)O[C@H]2C/C(C)=C/CC[C@@]3(C)O[C@@H]3[C@H](O)[C@@H]2C(C)C)cc(OC)c1OC	-8.1	0%	-12%	-6%	-7.2%	4	-17
O=C(CCC(=O)NC1CCCCCCC1)Nc1nnc(C(F)(F)F)s1	-1.2	15%	-5%	12%	-1.7%	-3	3
Cc1cc(NCc2ccncc2)ccc1Br	1.2	79µM*	-1%	?	0.8%	7	-2
Cc1ccc(C(=O)N2c3ccc(F)cc3CCC2C)o1 (stereo not drawn)	-2.2	3%	0%	-13%	-0.5%	1	1
COCCn1c(SCC(=O)Nc2cc(C)on2)nc2c(c1=O)SC(C)C2 (stereo not drawn)	-4.0	?	2%	-2%[15.4 µM]	·	3	25
CC(C)OC(=O)CSc1nc2cc3c(cc2cc1C#N)OCO3	0.7	-3%	20%	?	-13%	-3	10
CCC(C(=O)NCc1ccc(F)cc1)N(Cc1ccco1)C(=O)c1snc(C(N)=O)c1N (stereo not drawn)	2.5	9%	-19%	-26%	-6.8%	7	16
COc1ccccc1C(=O)N1C(CC(=O)Nc2cc(Cl)ccc2C)C(=O)NC2CCCCC21 (stereo not drawn)	0.9	10%	?	-61%[inhibitor]	1.1%	45	16
CC(C)C(=O)NC(c1ccc(Cl)cc1Cl)c1ccc2cccnc2c1O (stereo not drawn)	-0.7	6%	-13%	-28%	-7.8%	·	-1
C=CCn1c(=S)[nH]c2ccccc2c1=O	4.3	7%	14%	-30%	0.2%	-3	13
O=S(=O)(NCC1CCCO1)c1ccc2ccccc2c1 (stereo not drawn)	0.5	19%	-8%	-16%	-4.6%	2	10
Cc1ccccc1/C=C1\OC(=O)c2ccccc21	-4.0	18%	-6%	23%	28µM*	17	0
O=C(/C=C/c1ccccc1[N+](=O)[O-])NCCCn1ccnc1	-0.2	19%	5%	-3%[15.4 µM]	·	0	5
O=C(CCCN1C(=O)/C(=C\c2ccco2)SC1=S)Nc1ccc2ccccc2c1	?	?	1%	0%	1.0%	-15	13
CCC(C)n1c(NC(=O)c2ccccc2)c(C#N)c2nc3ccccc3nc21 (stereo not drawn)	?	-17%	-11%	-4%	?	-16	-14
Cc1ccc(S(=O)(=O)NNC(=O)c2cc(C)cs2)cc1	-0.3	2%	18%	4%[15.4 µM]	1.1%	10	-1
CCC(=O)N1CC2(CC(c3cccc(NC(=O)CC(c4ccccc4)c4ccccc4)c3)=NO2)C[C@H]1C(N)=O (stereo partly drawn)	3.6	-5%	2%	·	-1.0%	3	-8
CC(NC(=O)CSc1ncccn1)c1ccccc1 (stereo not drawn)	-2.7	8%	3%	17%	-6.3%	10	18
CC(=O)Nc1ccc(NC(=O)C2CCCN(S(=O)(=O)c3ccc(Cl)cc3)C2)cc1 (stereo not drawn)	7.1	10%	18%	-5%[15.4 µM]	·	-9	18
CC(C)(C)OC(=O)N1CCC(Cc2cc(-c3cccnc3)no2)(C(=O)O)CC1	·	·	-2%	3%	-1.4%	3	-30
CCOc1ccc(N(CCCCO)C(=S)NC(=O)c2ccc(C)c(Br)c2)cc1	-7.4	-20%	?	-30%[15.4 µM]	·	-11	-5
OC(COc1ccccc1)CN1CCN(CC(O)COc2ccccc2)CC1 (stereo not drawn)	2.9	?	12%	3%	-1.8%	8	-7
O=S(=O)(NCCC1CC1(Cl)Cl)c1ccccc1 (stereo not drawn)	3.3	5%	11%	-10%[15.4 µM]	·	1	14
CCCn1nnc(NC(=O)C(c2ccccc2)c2ccccc2)n1	2.5	4%	-5%	-4%	1.0%	6	2
N=c1sccn1CC(=O)Nc1cc(Cl)ccc1[N+](=O)[O-]	-0.2	-7%	-5%	1%[15.4 µM]	·	0	6
CC(C(=O)Nc1cccc(S(=O)(=O)N2CCOCC2)c1)N1CCN(C)CC1 (stereo not drawn)	·	16%	7%	8%	-1.0%	0	-36
Cc1ccc(S(=O)(=O)N2[C@@H](c3ccc(Br)cc3)C(C(=O)O)=CC[C@H]2c2ccc(C(C)C)cc2)cc1	·	·	-16%	·	-1.3%	-7	·
CCSc1nccc(-c2nn(-c3ccc(C)cc3)ccc2=O)n1	-6.0	7%	11%	1%	-18%	-7	2
Cc1ccccc1N=C1N=C(N)c2ccccc21	-1.5	9%	-5%	5%	1.3%	-11	15
Cc1cc(C)cc(NC(=O)CSc2nc(CSc3ccc(Cl)cc3)cc(=O)[nH]2)c1	2.8	-25%	-9%	28%[15.4 µM]	·	6	?
O=C(c1ccncc1)c1ccc(N2CCN(C3CC(=O)N(Cc4cccs4)C3=O)CC2)cc1 (stereo not drawn)	1.7	9%	35µM*	-6%	1.3%	2	4
Nc1ccc(S(=O)(=O)c2ccc(N3CCOCC3)c(N)c2)cc1	·	·	·	-51%[inhibitor]	-15%	-7	·
COc1cc(S(=O)(=O)N(Cc2ccc(C)cc2)Cc2ccco2)ccc1-n1cnnn1	0.5	6%	-3%	-42%[inhibitor]	-0.5%	12	7
O=C(c1cc([N+](=O)[O-])cc([N+](=O)[O-])c1)N1CCN(C(=O)c2ccco2)CC1	0.9	14%	-4%	-3%	1.3%	·	21
CCOC(=O)C1=C(CC)Nc2ccccc2N=C1NC(=O)Nc1ccccc1OC	3.9	24%	1%	20%	-1.6%	7	5
COc1ccccc1-c1nnc2n1N=C(C)CS2	1.1	7%	-3%	-32%	0.7%	9	-4
COc1cc(NC(=O)c2ccccc2)c(OC)cc1NC(=O)CN1CCN(c2ccccn2)CC1	0.5	-11%	-22%	-43%	-1.1%	?	-9
Cc1cccc(C(=O)NCC(=O)N2CCN(S(=O)(=O)/C=C/c3ccccc3)CC2)c1	·	·	4%	20%	1.4%	3	6
N#Cc1nc(Cc2ccccc2)oc1N1CCC(Cc2ccccc2)CC1	-0.5	-7%	3%	-17%	-1.8%	?	0
Cc1ccc(N2CC(=O)N(c3ccc(C)cc3)CC2=O)cc1	2.8	28%	11%	-1%[15.4 µM]	0.2%	11	·
Cc1ccc(C(=O)NCC(=O)OCC(=O)Nc2ccc(Cl)cc2C(F)(F)F)cc1C	4.1	10%	2%	-29%	-2.4%	3	3
CCCCn1c(CNC(=O)C23CC4CC(CC(C4)C2)C3)nnc1SCC(=O)Nc1nnc(C)s1	1.4	7%	-11%	-84%[inhibitor]	0.8%	-6	-12
COc1ccccc1NS(=O)(=O)c1cccc(C(=O)N2CCCC2)c1	·	·	4%	-43%[inhibitor]	1.6%	11	·
COc1cccc2c1SCc1ccccc1C2CC(N)=O (stereo not drawn)	·	·	12%	-8%	·	-1	·
Cc1cc(C)n(CCNC(=O)C2CCC(=O)N(Cc3ccc(Cl)cc3)C2)n1 (stereo not drawn)	0.0	20%	2%	-4%	·	4	1
COc1ccc(NC(=O)c2ccco2)c(NC(=O)c2ccc([N+](=O)[O-])cc2)c1	3.1	-3%	-6%	14%	0.5%	3	-17
O=C(N/N=C\c1ccc[nH]1)c1cncc(Br)c1	2.9	-5%	-3%	-2%	-2.4%	·	5
COc1ccc(C(=O)CSc2nnc(-c3cc4ccccc4cc3O)n2Cc2ccco2)cc1	3.3	13%	-11%	-26%	0.1%&-1.4%	-12	7
Cc1cc(/C=C(\C#N)C(=O)NC2CCCCCC2)c(C)[nH]1	5.0	15%	-10%	-2%	-6.0%	-16	10
COCCN(C(=O)c1snc(C(N)=O)c1N)C(C(=O)NC1CCCCC1)c1ccc(N(C)C)cc1 (stereo not drawn)	4.1	10%	-4%	?	-0.3%	-18	-8
O=S(=O)(Nc1ccccc1N1CCCCC1)c1cccs1	-8.4	-10%	-14%	-16%[15.4 µM]	·	0	-5

Further entries.
SMILES	Menin MLL FP FL	Sfp inh	gsp antagonist	gsp ag	ClpP mod	CtBP-E1A inh	TRPV1 potentiator
CCCCNC(=O)N1CCc2ccccc2C1	0.2	20%	-8%	3%	2.0%	-14	-19
COCCCNC(=O)C(=O)N/N=C/c1ccc(OCC(=O)Nc2cccc(Cl)c2C)c(OC)c1	-3.0	13%	13%	?	60%	-2	4
Cc1ccc([N+](=O)[O-])cc1NC(=O)CN1CCCCC1	2.1	7%	17%	?	-4.2%	-3	0
O=C(Nc1ccc(Cl)cc1)N1CCC(CO)(Cc2ccccc2)CC1	0.2	8%	0%	-34%[inhibitor]	·	7	-19

Screening data (PubChem BioAssay)
